Rango complex inh: inhibitors of Rango-importin beta complex formation | Q14974 | Rango CFP/YFP FRET sensor + importin beta, 45 min | actives 0.031% (n = 340,000) | Potency, µM (highest dose often 92.2 µM), for inactives: top-dose inhibition of complex formation; active = rising FRET ratio curve, often small or poorly fitted; inconclusive = mostly compound fluorescence or quenching in the first reads; inactive = flat curves in all reads;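 note: potency is the fitted concentration of half-maximal effect; 0% = DMSO wells and 100% = buffer wells lacking importin beta; nearly all actives have a fitted effect of over 15% in size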
Target sequence (Q14974 whole entry, looked up): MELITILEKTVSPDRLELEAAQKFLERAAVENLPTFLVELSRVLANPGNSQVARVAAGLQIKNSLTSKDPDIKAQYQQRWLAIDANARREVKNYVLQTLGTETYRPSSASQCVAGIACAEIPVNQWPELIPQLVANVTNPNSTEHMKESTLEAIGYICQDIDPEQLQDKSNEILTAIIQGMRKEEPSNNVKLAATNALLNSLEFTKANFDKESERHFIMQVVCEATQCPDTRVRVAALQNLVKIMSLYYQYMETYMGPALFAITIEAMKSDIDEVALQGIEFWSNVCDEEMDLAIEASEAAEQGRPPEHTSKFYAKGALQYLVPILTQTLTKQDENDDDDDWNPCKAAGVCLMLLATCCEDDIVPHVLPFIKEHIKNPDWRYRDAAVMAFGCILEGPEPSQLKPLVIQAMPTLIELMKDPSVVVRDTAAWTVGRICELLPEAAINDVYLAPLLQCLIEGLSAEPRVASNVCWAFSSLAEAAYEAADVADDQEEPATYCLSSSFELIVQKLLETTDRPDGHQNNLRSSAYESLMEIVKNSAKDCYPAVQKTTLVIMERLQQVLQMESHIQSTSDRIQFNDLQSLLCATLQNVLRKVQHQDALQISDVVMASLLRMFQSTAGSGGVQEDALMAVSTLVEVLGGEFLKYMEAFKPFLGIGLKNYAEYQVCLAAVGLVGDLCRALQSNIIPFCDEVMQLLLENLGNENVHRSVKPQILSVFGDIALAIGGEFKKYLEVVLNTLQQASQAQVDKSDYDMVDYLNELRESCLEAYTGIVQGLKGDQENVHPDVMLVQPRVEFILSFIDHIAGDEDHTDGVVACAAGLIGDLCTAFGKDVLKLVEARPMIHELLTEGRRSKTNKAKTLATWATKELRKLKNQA
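FRET biosensor (snurportin 1 IBB flanked by EYFP and cerulean), 50 nM, with compound 5 min, then 0.125 microM importin beta in PBS, 1 mM DTT, 0.02% Tween-20, 0.1% BSA. CFP/YFP ratio read after 45 min at room temperature; pre-read flags interference.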
GLA inh pH 4.5: blocks human alpha-galactosidase A at pH 4.5 | 230,000 tested, under 10 active | P06280 | activity change, negative = inhibition, % at 105 µM | purified enzyme, 4-MU-alpha-Gal fluorescence, pH 4.5; inconclusive = small, poorly fitted or top-dose-only inhibition, or a rising curve; inactive = flat fitted curve, though single readings scatter; no compound was filed as active;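 note: 0% = full activity with enzyme and -100% = basal without enzyme; dose as in the result columns while the protocol names 77 µM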
Rango dissoc inh: inhibitors of RanGTP-induced Rango-importin beta complex dissociation; O95149+P62826; Biochemical FRET Rango-importin beta, RanGTP-induced dissociation; Potency, µM (titrated, usually from 46.1 µM), without a hit: at the top dose activity change, negative = inhibition; actives 0.071% (n = 340,000); active means falling FRET ratio curve, often poorly fitted, with flat reads before Ran was added; inconclusive means other falling curves, or compound fluorescence or quenching; inactive means flat or rising ratio curve;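 note: potency is the fitted concentration of half-maximal effect; % of control where 0% means no effect; nearly all actives have a fitted effect of over 45% in size; -100% = wells without RanGTP and RCC1; the record marks most hits as doubtful in a second field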
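Rango/importin beta premix (0.1/0.25 uM final), PBS + 1 mM DTT + 0.02% Tween-20 + 0.1% BSA; cpd 5 min RT; FRET pre-read; + RanGTP-RCC1 (0.6 uM Ran, 2 mM GTP, 0.2 uM RCC1); 45 min RT; FRET post-read, ex 430, em 486/530 nm.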
miR-21 FLuc: raises the signal of a miR-21 reporter; AID 2288; 340,000 tested, under 10 active; Potency, µM (doses to about 38.3 µM), inactives show at the top dose reporter change, positive = more light; HeLa miR-21 FLuc reporter, luciferase, 48 h; active = well fitted rising curve with a large enough effect; inconclusive = small, poorly fitted or top-dose-only effect; inactive = no such curve, though single readings can be large or run the other way;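 note: % of control where 0% means no effect; miR-21 action dims this reporter so a rising signal means less miR-21 action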
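HeLa cells endogenously expressing miR-21, stably carrying CMV-driven firefly luciferase with a downstream miR-21 binding site, 2000 cells/well. Titrations up to approximately 40 uM, 48 hours; luciferase luminescence read.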
* = called active by the depositor; u = inconclusive; x = not tested or not shown; & = joins results of further samples. A portion of the library; count on the stated rates, not on these rows.

Rango complex inh	GLA inh pH 4.5	Rango dissoc inh	smiles	miR-21 FLuc
0.3%	x	-2%	CC(C)CC(C(=O)NC(C)(C)C)N(Cc1ccccc1Cl)C(=O)c1snc(C(N)=O)c1N (stereo unspecified)	-1%
u	u	u	N#Cc1c(N)n(-c2ccc(C(=O)O)cc2)c2nc3ccccc3nc12	-5%
8.4%	0	4%	Cc1ccc(-c2csc(N=C(N)N)n2)cc1	-52%
-0.1%	-4	-6%	Cn1c(SCC(=O)Nc2cccc3ccccc23)nc(O)cc1=O	-2%
-1.0%	-11	-4%	O=C1CC(c2ccc(S(=O)(=O)NCCOc3ccccc3)cc2)CN1 (stereo unspecified)	-5%
u	4	u	Nc1c(NCc2ccccc2F)c(=O)[nH]c(=O)n1Cc1ccccc1	-8%
3.5%	-5	35%	CC(C)(C)c1[nH]nc2c1C(c1ccncc1)C(C#N)=C(N)O2 (stereo unspecified)	-6%
-1.0%	3	-6%	Cc1nn(-c2ccccc2)c(Cl)c1C(=O)NCC(=O)O	1%
0.9%	-3	9%	Cc1ccc(NC(=O)CC2S/C(=N/N=C/C=C/c3ccccc3)NC2=O)cc1Cl (stereo unspecified)	-13%
1.0%	x	1%	CC1CCN(c2nc3c(c(=O)[nH]c(=O)n3C)n2CCSc2ncccn2)CC1	x
-0.8%	x	-1%	CCOC(=O)C1CCCN(C(=O)c2cn(-c3ccccc3)nc2-c2cccnc2)C1 (stereo unspecified)	x
2.9%	-4	0%	O=C(CSc1nnc(SCc2ccccc2)s1)N/N=C/c1c(Cl)cccc1Cl	-1%
-3.8%	-1	-4%	Cc1ccc(N2C(=O)C3N=NN(CC(=O)N4N=C(c5cccc6ccccc56)CC4c4ccccc4)C3C2=O)cc1 (stereo unspecified)	-10%
1.3%	x	16%	CC(=O)N/C(=C\c1ccccc1)C(=O)OCC(=O)c1ccccc1	x
-2.6%	8	-25%	O=C(COC(=O)c1c(F)cccc1F)Nc1ccc2[nH]c(=O)[nH]c2c1	-3%
-0.4%	x	16%	Cc1cccc(OCC(=O)NC2CC(C)(C)NC(C)(C)C2)c1	-2%
1.0%	-11	-10%	CCN1C(=O)/C(=C/N(C)C)c2ccccc21	-5%
-6.8%	1	-18%	COc1ccc(C2C(C#N)=C(N)Nc3nc4ccccc4n32)cc1 (stereo unspecified)	-23%
-1.8%	x	-11%	COc1ccc(NC(=O)CN(c2ccc(Cl)cc2)S(C)(=O)=O)cc1OC	-16%
u	4	-26%	Cn1c(/N=C/c2c(O)ccc3ccccc23)nc2ccccc21	-38%

Rango complex inh	GLA inh pH 4.5	Rango dissoc inh	smiles	miR-21 FLuc
1.2%	x	-11%	Cc1ccc(NC(=O)C2CCC2)cc1S(=O)(=O)N1CCCCCC1	x
1.5%	x	-3%	CC(=O)N(Cc1ccccc1)C(CC(=O)NCc1ccccc1)C(=O)O (stereo unspecified)	x
-0.6%	x	-11%	N#Cc1ccc(OCC(=O)NC(=O)NC2CCS(=O)(=O)C2)cc1 (stereo unspecified)	x
-3.0%	-3	-7%	CCOC(=O)Cn1c(=O)sc2ccccc21	-5%
0.7%	-7	2%	OC(COC(c1ccccc1)c1ccccc1)CN1CCCCC1 (stereo unspecified)	-7%
0.0%	x	5%	Clc1cccc(Cl)c1C[n+]1ccc2ccccc2c1	26%
-1.9%	x	37%	COc1ccc(CC(=O)NCC2CCCN(Cc3ccc(F)c(OC)c3)C2)cc1 (stereo unspecified)	2%
-2.8%	x	10%	COC(=O)Cn1cnc2c(nnn2-c2cccc(OC)c2)c1=O	-2%
-0.9%	x	1%	Cc1nc(CSc2ccc(Cl)cc2)cs1	-27%
-3.9%	x	16%	O=C(CCNC(=O)c1ccco1)NC(Cc1c[nH]c2ccccc12)C(=O)O (stereo unspecified)	x
-2.8%	x	7%	O=C1CN(C(=O)CSc2ccc(-c3ccc(F)cc3)nn2)c2ccccc2N1	3%
u	1	8%	O=C(CNC(=O)C1CCCCC1)Nc1ccccc1	-5%
-0.1%	-10	1%	Cc1cc(C(=O)COC(=O)C2CCN(C(=O)c3ccc(Cl)cc3)CC2)c(C)n1CC1CCCO1 (stereo unspecified)	-8%
-2.6%	x	16%	Cc1ccc(C(=O)CCC(=O)NCc2ccc(Cl)cc2)cc1	x
-4.2%	-13	22%	O=Cc1cn(CCC(=O)O)nc1-c1cc2ccccc2o1	-8%
-2.1%	-6	0%	COc1ccccc1NS(=O)(=O)c1cc(C(=O)N2CC(C)CC(C)C2)ccc1C (stereo unspecified)	-2%
-1.0%	-3	-4%	CC1=C(C)CC(C(=O)NC(C)CCc2ccccc2)C(C(=O)O)C1 (stereo unspecified)	-4%
0.6%	3	10%	COc1ccc(OC)c(Cc2nnc(CCC(=O)NCc3ccc(C)s3)o2)c1	2%
-3.5%	x	-24%	CCOC(=O)C1(CCOc2ccccc2)CCN(Cc2ccc(F)c(OC)c2)CC1	22%
-6.4%	2	17%	O=C(/C=C/c1ccc2c(c1)OCO2)NCCCN1CCOCC1	-9%

Rango complex inh	GLA inh pH 4.5	Rango dissoc inh	smiles	miR-21 FLuc
0.2%	9	2%	COc1ccccc1NC(=O)C12CC3CC(C1)CC(c1ccc(C)cc1)(C3)C2	-8%
0.9%	x	-2%	CC(C)N1CCN(CCCc2ccccc2)CC1CCO (stereo unspecified)	2%
1.7%	x	-6%	COCCn1c(SCC(=O)c2c(N)n(C3CC3)c(=O)[nH]c2=O)nnc1-c1ccc(Cl)cc1	x
3.5%	x	-17%	CCCCOc1ccc(C(=O)OCC(=O)c2c(N)n(C)c(=O)n(C)c2=O)cc1	x
-0.8%	-6	-2%	O=C(N/N=C/c1ccccc1OC(F)F)c1cc(-c2ccncc2)nc2ccccc12	20%
-3.7%	14	-29%	O=C(NCc1ccccc1)C(C(=O)c1ccc(F)cc1)n1ccccc1=O (stereo unspecified)	-1%
-0.5%	3	-7%	COc1ccc(C(=O)Cc2cc(OC)c(OC)cc2[N+](=O)[O-])cc1	-30%
-0.5%	6	-5%	Cc1ccc(NC(=S)NCc2ccc(S(N)(=O)=O)cc2)cc1Cl	0%
-2.5%	-2	-6%	CC12CCC(C(=O)NC(c3ccccc3)c3ccccc3)(OC1=O)C2(C)C (stereo unspecified)	0%
7.8%	x	-15%	O=C1CSC(=S)N1c1ccc(Cl)c(Cl)c1	1%
-0.6%	x	-6%	O=C(NCc1ccc(F)cc1)c1ccc2c(=O)n3c(nc2c1)CCCCC3	-4%
4.5%	x	0%	CN(C1CCCCC1)S(=O)(=O)c1cn(C)c(=O)n(C)c1=O	x
-2.9%	x	-7%	Cc1ccccc1Cn1nnc2c1C(=O)c1ccccc1C2=O	x
1.0%	x	3%	O=C(O)/C(=C\c1ccccc1OC(F)F)c1ccc(-c2ccccc2)cc1	-3%
-0.3%	-3	-3%	OCC1(CCOc2ccccc2)CCN(Cc2cn[nH]c2-c2ccccc2)CC1	3%
0.8%	-1	1%	O=C(c1ccc(COCC(F)(F)F)cc1)N1CCN(c2ccccn2)CC1	-65%
0.1%	5	-9%	CC(C)CCN1CCN(Cc2ccc(Oc3ncccn3)cc2)CC1CCO (stereo unspecified)	-6%
3.2%	x	-6%	CC(Oc1ccccc1)C(=O)Nc1nnc(S(=O)(=O)N2CCCCCC2)s1 (stereo unspecified)	6%&17%
4.9%	-3	5%	O=C(c1ccc(C(=O)N2CCOCC2)s1)N1CCOCC1	-2%
-2.4%	x	-7%	NC(=O)c1ccsc1NC(=O)COC(=O)c1ccc(Cl)nc1	x

Three compounds drawn at random from the list so far:
Rango complex inh	GLA inh pH 4.5	Rango dissoc inh	smiles	miR-21 FLuc
0.8%	-1	1%	O=C(c1ccc(COCC(F)(F)F)cc1)N1CCN(c2ccccn2)CC1	-65%
1.0%	x	3%	O=C(O)/C(=C\c1ccccc1OC(F)F)c1ccc(-c2ccccc2)cc1	-3%
-2.4%	x	-7%	NC(=O)c1ccsc1NC(=O)COC(=O)c1ccc(Cl)nc1	x

(cont.)
Rango complex inh	GLA inh pH 4.5	Rango dissoc inh	smiles	miR-21 FLuc
u	-2	3%	COc1ccc(C(=O)NCc2ccc(C)cc2)cc1S(=O)(=O)N1CCCc2ccccc21	-13%
-2.9%	0	0%	CCOc1ccccc1CNc1nc2nc3c(c(=O)n2[nH]1)CCC3	-5%
-0.6%	x	1%	CC(NC(=O)COC(=O)c1ccc2c(c1)OCCO2)c1ccccc1 (stereo unspecified)	x
-4.5%	-1	12%	CC1=NN(c2ccc(Cl)c(C(=O)O)c2)C(=O)/C1=C\c1ccc(-c2ccc(C(=O)O)cc2)o1	-13%
9.2%	-3	-23%	O=c1c2ccccc2nc(SCCN2CCCCC2)n1CCc1ccccc1	-1%
0.8%	-11	4%	CCC1CCCCN1C(=O)CSc1nnc(CNC(=O)c2ccco2)o1 (stereo unspecified)	1%
-0.6%	-3	2%	O=C(N/N=C/C(c1ccccc1)c1ccccc1)c1ccccc1F	-18%
-5.7%	-8	8%	CCn1c(=O)cc(OCC(=O)N2CCCC2)c2ccccc21	-5%
2.5%	5	-10%	CCc1cccc(CC)c1NC(=S)Nc1ccc2cn[nH]c2c1	1%
1.7%	3	-3%	CS(=O)(=O)N(Cc1ccc(C(=O)N2CCc3ccccc3C2)cc1)c1ccccc1	-17%
0.1%	x	-2%	Nc1nc2sc3c(c2cc1C(=O)NCC(=O)O)CCCC3	24%
0.2%	-11	-14%	Cc1cc(C)c2nc(SC(C)C#N)cc(C)c2c1 (stereo unspecified)	-3%
-2.6%	x	2%	CC(=O)N(CCOc1ccccc1)CCOc1ccccc1	x
4.7%	x	-1%	N#Cc1ccccc1S(=O)(=O)N1CCN(C(=O)Cc2n[nH]c(=O)c3ccccc23)CC1	x
-3.7%	3	-4%	N#Cc1ccc(CSc2nnc(-c3ccccn3)n2-c2ccccc2)cc1	-14%
0.7%	x	u	CNc1cccnc1C=NNC(N)=S	x
-3.7%	7	-9%	Cn1c(SCc2c(F)cccc2Cl)nc2c(c1=O)SCC2	-7%
x	0	x	CCOc1cccc(/C(O)=C2/C(=O)C(=O)N(CCN3CCOCC3)C2c2ccncc2)c1 (stereo unspecified)	0%
-2.0%	5	-1%	CC1(C)CC(=O)C2=C(C1)Nc1ccccc1NC2c1cccs1 (stereo unspecified)	0%
0.1%	x	15%	C=CC(=O)Nc1cccc(CN2C(=O)N(c3cc(OC)cc(OC)c3)Cc3cnc(NCCCCN(CC)CC)nc32)c1	x

Ordered by count of non-hydrogen atoms (ascending): some entries from above.
Rango complex inh	GLA inh pH 4.5	Rango dissoc inh	smiles	miR-21 FLuc
8.4%	0	4%	Cc1ccc(-c2csc(N=C(N)N)n2)cc1	-52%
0.0%	x	5%	Clc1cccc(Cl)c1C[n+]1ccc2ccccc2c1	26%
-2.8%	x	7%	O=C1CN(C(=O)CSc2ccc(-c3ccc(F)cc3)nn2)c2ccccc2N1	3%

(list continues)
Rango complex inh	GLA inh pH 4.5	Rango dissoc inh	smiles	miR-21 FLuc
0.1%	x	-7%	O=S(=O)(Cc1ccccc1)Nc1cccc(Br)c1	7%
1.5%	x	2%	Cc1c(Cc2ccccc2)c(=O)oc2c(C)c(OCC(=O)N3CCC(C(=O)O)CC3)ccc12	-2%
-0.7%	x	-22%	O=C(NCCCNC(=O)c1ccc(Cl)cc1Cl)c1ccco1	4%
-0.8%	x	-18%	C[C@H]1COC(=O)[C@@H](Cc2ccc(F)cc2)CC/C=C\C[C@H](CC(=O)NCCO)C(=O)N1	x
0.3%	2	2%	CC(C)(O)CNC(=O)Nc1ccc(Cl)c(Cl)c1	-7%
1.2%	4	-11%	C/C(O)=C\c1nc(=O)c2c(C)cc(C)nc2n1-c1ccccc1	-1%
-4.9%	0	-22%	CC1CC(C)(C)N2C(=O)C3(Nc4ccccc4S3)c3cccc1c32 (stereo unspecified)	12%
2.1%	-10	-6%	O=c1c(Oc2ccccc2F)coc2cc(OCc3cnn(-c4ccccc4)c3)ccc12	-9%
2.7%	-6	5%	CCc1ccc(Nc2nnc(SCC(=O)Nc3ccc(C(=O)O)cc3)s2)cc1	16%
3.2%	3	-1%	Clc1ccc(COn2nnc3ccccc32)c(Cl)c1	-61%
-4.6%	x	-8%	CN(CCO)CC(O)Cn1cnc2c1c(=O)n(C)c(=O)n2C (stereo unspecified) (tested in a mixture with another compound)	-1%
